Source: PubChem
KCNQ2 block: KCNQ2 potassium channel inhibitors, primary screen, cell-based, CHO-K1, FluxOR thallium flux, B-score (AID 2156); 310,000 tested, 1.1% active; B-score at 10 µM; 20 min; active compounds read low; only compounds with negative scores are shown here; some inactives read as strong as hits; O88943;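 active = fluorescence ratio B-score at most minus 3 library SDs, with starting brightness B-score within 2 library SDs, cut at about -5.5 in these data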
Target sequence (O88943 whole entry, looked up): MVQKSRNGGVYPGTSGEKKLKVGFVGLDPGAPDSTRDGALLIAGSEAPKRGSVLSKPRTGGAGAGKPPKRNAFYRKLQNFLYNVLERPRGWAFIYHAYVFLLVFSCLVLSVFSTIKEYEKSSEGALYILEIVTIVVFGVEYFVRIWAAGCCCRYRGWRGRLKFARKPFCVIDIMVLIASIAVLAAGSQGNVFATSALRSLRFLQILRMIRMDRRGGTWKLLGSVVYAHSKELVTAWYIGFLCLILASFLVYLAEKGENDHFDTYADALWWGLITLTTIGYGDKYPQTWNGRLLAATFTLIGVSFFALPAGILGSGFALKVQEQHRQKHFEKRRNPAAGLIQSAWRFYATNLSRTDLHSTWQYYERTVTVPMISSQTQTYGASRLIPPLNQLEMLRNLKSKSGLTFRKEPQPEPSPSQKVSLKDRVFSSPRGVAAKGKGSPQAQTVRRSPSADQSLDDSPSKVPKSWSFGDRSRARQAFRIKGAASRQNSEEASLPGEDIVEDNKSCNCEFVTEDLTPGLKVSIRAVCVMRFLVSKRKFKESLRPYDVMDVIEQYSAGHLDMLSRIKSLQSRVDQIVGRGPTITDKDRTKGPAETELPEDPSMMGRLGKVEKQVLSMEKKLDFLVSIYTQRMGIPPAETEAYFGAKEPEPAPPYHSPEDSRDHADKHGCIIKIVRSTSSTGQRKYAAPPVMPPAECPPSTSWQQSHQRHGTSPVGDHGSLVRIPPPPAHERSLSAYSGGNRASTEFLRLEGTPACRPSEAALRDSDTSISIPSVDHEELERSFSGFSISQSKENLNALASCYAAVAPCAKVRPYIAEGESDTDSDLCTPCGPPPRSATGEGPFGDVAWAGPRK
KCNQ2 block baseline: second read-out of KCNQ2 block, no call of its own (marks repeat the call); B-score; measured here: initial fluorescence intensity artifact check;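 brightness before thallium and not channel activity; 0 = typical well and far values either way flag optical interference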
* marks the source's active call; other numbers are inactive results; i = inactive. A portion of the library (hit frequency here may not be typical).

KCNQ2 block,KCNQ2 block baseline,SMILES
i,-1.43,CC1CCCCN1CCCNC(=O)Cn1ncc2c([nH]c3ccccc32)c1=O (configuration not stated)
i,1.04,Cc1cccn2cc(CSc3ccccc3N)nc12
i,-0.05,CCOc1cccc(C(=O)NCc2ccccc2)c1
i,-1.05,CCCCOC(=O)c1cc(Cl)c(O)c(OC)c1
i,-0.66,O=C(c1ccccc1)N(Cc1cccnc1)C1(C(=O)Nc2ccccc2)CCCCC1
i,-0.84,FC(F)(F)c1ccccc1NC(=S)N1CCN(c2ccccn2)CC1
i,2.45,COc1ccc(Cl)cc1Nc1nnc(-c2ccncc2)s1
i,0.17,COc1ccc([N+](=O)[O-])cc1NC(=O)CSc1ccccc1
i,-0.03,CCC(=O)Oc1ccc(C(=O)Nc2cccc(C(=O)NCC(C)C)c2)cc1
i,-1.35,C(=N\Nc1nc2ccccc2[nH]1)/c1cccc2nccnc12
i,-0.37,NC(=O)c1cc([N+](=O)[O-])cc2c1C=Cc1ccccc1O2
i,0.4,CC(C)N(C)NC(=S)Nc1ccccc1
-8.68*,0.31*,COc1cc(C(=O)NCC(c2cccs2)N2CCc3ccccc32)cc(OC)c1OC (configuration not stated)
i,1.26,Cc1nn2cc(-c3ccc(Cl)cc3)cnc2c1Br
i,15.3,CC(C)N1CC=C2C(C#N)=C(N)C(C#N)(C#N)C(c3ccccc3)C2C1 (configuration not stated)
-7.69*,3.09*,CCOC(=O)CC1C(=O)NCCN1c1nc2ccc(C)cn2c(=O)c1/C=C1\SC(=S)N(C(C)CC)C1=O (configuration not stated)
-6.05*,0.54*,Cc1cc(C)c2cc(C(c3nnnn3C3CCCC3)N3CCOCC3)c(=O)[nH]c2c1 (configuration not stated)
i,0.72,O=c1c2ccccc2ncn1Cc1nc2ccccc2s1
-6.62*,1.34*,COCCn1cc(C(=O)N2CCCC(C)C2)c2c3ccccc3n(C)c2c1=O (configuration not stated)
i,-0.33,O=C(CSc1nc2[nH]ncc2c(=O)n1-c1ccc(Cl)c(Cl)c1)NCc1ccccc1Cl
i,0.06,COC(=O)c1ccc(C23CC4(C2)[C@H](CN(CC2CCCCC2)[C@@H]4c2ccccc2)C3c2ccc(Cl)nc2)cc1 (some centres not stated)
i,0.22,CC(OC(=O)C1CCCC1)C(=O)Nc1ccc(S(N)(=O)=O)cc1 (configuration not stated)
i,0.96,COc1cc(NC(=S)NN2CCN(C)CC2)cc(OC)c1
i,1.26,CCCCCCCOc1ccc(OC(=O)c2ccncc2)cc1
i,1.26,O=C(c1ccc2c(c1)OCO2)N1CCc2ccccc2C1
i,-0.76,O=C(Cn1nc(Cc2cccnc2)c2ccccc2c1=O)NCCCN1CCCC1=O
-7.14*,-1.84*,COc1cc(OC)cc(C(=O)Nn2cc(C(=O)Nc3ccccc3F)c3ccccc3c2=O)c1
i,1.26,COc1ccc2[nH]c(C(=O)N3CCC(Cc4ccccc4)CC3)cc2c1
i,0.26,COc1ccc(S(=O)(=O)NCCOc2cccc3cccnc23)cc1OC
i,-0.71,CC(C)Oc1cccc(C(=O)C2CCCN(C(=O)c3cc(C4CC4)[nH]n3)C2)c1 (configuration not stated)

The results go on:
KCNQ2 block,KCNQ2 block baseline,SMILES
i,-0.67,O=C(O)c1ccc(Cn2cc(Cl)cn2)cc1
i,-1.09,CCNc1nn2ccccc2c1/C=C(\C#N)C(=O)OCC
i,-0.1,C=CCOc1ccc(CN(C)Cc2nc3cc(C(F)(F)F)ccc3c(=O)[nH]2)cc1
i,-0.25,OCCNCCO
i,1.63,CCOC(=O)c1nn(-c2ccc3c(c2)CCN3C(C)=O)cc1O
i,1.13,O=C(N/C(=C\c1ccccc1)C(=O)N1CCOCC1)c1ccccc1Cl
i,0.39,O=C(O)/C=C/C(=O)Nc1ccc(N2CCOCC2)nc1N1CCOCC1
i,-0.01,COc1ccccc1N(CC(=O)NC(C)(C)C)S(=O)(=O)c1cccs1
i,-0.36,CSc1nc(C)c(CCOC(=O)c2ccccc2)c(=O)[nH]1
i,1.65,CC(=O)c1ccc(NC(=O)C(C)Nc2ccc(Cl)cc2)cc1 (configuration not stated)
i,0.03,Cc1nn(-c2cc(N3CCCCC3)ccc2N)c(=O)c2ccccc12
i,-0.21,Cc1cc(OCCCCN2C(=O)NC(C)(C)C2=O)cc(C)c1Cl
i,-0.65,Cn1c(C(=O)NN)cc2cc(Oc3ccccc3)ccc21
i,1.41,O=C(CN(CC1CCCO1)C(=O)CNS(=O)(=O)c1ccc(Cl)cc1)NC1CCCC1 (configuration not stated)
i,0.26,O=C(CCC1CCCC1)Nc1nnc(-c2ccc3c(c2)OCO3)s1
i,0.32,Cc1[nH]c(C)c(S(=O)(=O)NCc2ccc(F)cc2)c1C(=O)N1CCCCC1
i,0.32,c1cnc(N2CCN(c3nc4ccccc4n4cnnc34)CC2)nc1
i,0.3,CC(CNC(=O)CN1C(=O)CCSc2ccccc21)c1ccccc1 (configuration not stated)
i,-0.01,Cc1cccn2c(=O)nc(SCC(=O)Nc3ccc4c(c3)OCCO4)nc12
i,-0.38,Nc1cc2c(cc1C(=O)c1ccc(Cl)cc1)OCCO2
i,4.96,Cc1ccc(C(=O)NC(Cc2c[nH]c3ccccc23)C(=O)O)o1 (configuration not stated)
i,-0.45,CCOC(=O)c1ccc(N2C(=O)CC(Sc3nnc(C)s3)C2=O)cc1 (configuration not stated)
i,-2.03,COc1ccccc1-c1noc(-c2cccnc2)n1
i,-0.66,CS(=O)(=O)N1CCC(Oc2cccc(C(=O)NCCCC3CCCC3)c2)CC1
i,3.01,C#CCOCCOCCOCCNc1nc(N2CCN(C(=O)[C@H](CCCCN)n3cc([C@@H](N)CO)nn3)CC2)nc(N2CCN(C(=O)[C@H](Cc3cc4ccccc4[nH]3)n3cc([C@@H](N)Cc4ccc(O)cc4)nn3)CC2)n1
i,-0.06,CCN(CC)CCCNC(=O)c1ccc(C)c(NC(=O)C2=C(C)OCCS2)c1
i,0.82,COc1ccccc1N1C(=O)CSC1=S
i,1.77,Cc1ccc(CNc2cnn(C34CC5CC(CC(C5)C3)C4)c(=O)c2Cl)cc1
-6.98*,-0.13*,COc1cccc(C2C(=O)N(C3CCCCC3)CC(=O)N2Cc2ccc(F)cc2)c1 (configuration not stated)
i,-0.88,CCC(C)NC(=O)[C@@H]1CCCN1C(=O)C1CCN(S(=O)(=O)c2ccc(C)cc2)CC1 (some centres not stated)

The list continues:
KCNQ2 block,KCNQ2 block baseline,SMILES
i,-1.35,COc1ccc(C(=O)NCCc2ccccc2F)cc1OC1CCN(C(C)=O)CC1
i,-2.78,CC(=O)OCCCNc1cc(SCc2ccco2)c2nonc2c1[N+](=O)[O-]
i,0.08,Cc1ccc(NC(=O)CN(C)C(=O)C(C)OC(=O)CNC(=O)c2ccc(Cl)c([N+](=O)[O-])c2)cc1 (configuration not stated)
i,-0.23,Oc1c(C=NCc2ccncc2)sc2ccccc12
i,-0.15,CNC(=S)NC(CC(=O)OC)c1ccc2c(c1)OCO2 (configuration not stated)
i,0.79,Cc1cc(=O)c2cc3nc(-c4cccnc4)oc3c(Br)c2o1
i,0.64,COc1ccc(NC(=O)NC(C)c2ccc3c(c2)OCO3)cc1OC (configuration not stated)
i,-0.01,COc1cc2c(cc1OC)CN(Cc1cc(=O)oc3cc(C)c(Cl)cc13)CC2
i,-0.53,CCOc1ccc(S(=O)(=O)N2CCCC(C(=O)Nc3cc(C)cc(C)c3)C2)cc1 (configuration not stated)
i,-0.01,COc1ccc(NC(=O)CN(C)C(=O)C23CC4CC(CC(C4)C2)C3)cc1
i,2.44,Cn1cnnc1SCCOc1ccc(Cl)cc1
i,-0.38,COc1ccccc1N1CCN(C/C(O)=C(\C#N)c2nc(-c3ccccc3)cs2)CC1
i,-1.02,Cc1cccc(C)c1NC(=O)CNC(=O)c1cn(-c2ccccc2)nc1-c1ccccc1
i,0.27,COc1cc(NS(=O)(=O)c2ccc(NC(=S)NC(=O)C(C)(C)C)cc2)nc(OC)n1
i,0.56,Cc1ccc(C(=O)OCC(=O)NC2CCCCC2)o1
i,1.61,Cc1ccc2c(c1)NC(=O)CC(c1ccccc1)=N2
i,0.1,COc1ccccc1NC(=S)N(CCc1nc2cc(C)c(C)cc2[nH]1)Cc1cccnc1
i,0.72,Cc1c(C)[n+](=O)c2c(n1[O-])CCC2
i,0.11,CC(=O)Nc1nc2c(F)cccc2s1
i,-0.64,CC(=O)N1CCN(c2ccc(NC(=O)COc3ccc(Cl)cc3Cl)cc2)CC1
i,-0.06,Cc1ccc(C(=O)N/C(=C\c2cccs2)C(=O)NCCCn2ccnc2)cc1C
i,1.85,Cn1c(=O)c2[nH]c(=O)cnc2n(C)c1=S
i,-0.54,O=C(CN1C(=O)c2ccccc2S1(=O)=O)c1ccc(O)c(O)c1
i,0.29,COc1ccc(-c2csc(NC(=O)c3cc(-c4cccs4)nc4ccccc34)n2)c(OC)c1
i,-0.44,O=C(NNC(=O)c1cccnc1)Nc1ccccc1
i,0.03,COc1ccc(CCC(=O)NCc2ccccc2Cl)cc1OC
i,0.09,O=Cc1ccc(OCC(=O)Nc2ccccc2-c2ccccc2)cc1
i,1.93,CC(C)(C)C(=O)NC(=S)Nc1ccccn1
i,1.51,O=C(N/N=C/c1ccco1)c1cc(Br)ccc1OCc1ccccc1
i,-0.03,Cc1ccc(CN2C(=O)CC(Nc3ccc(N4CCOCC4)cc3)C2=O)cc1 (configuration not stated)

Of the compounds above, eight contain an aryl thioether with sulfur outside any ring:
KCNQ2 block,KCNQ2 block baseline,SMILES
i,1.04,Cc1cccn2cc(CSc3ccccc3N)nc12
i,0.17,COc1ccc([N+](=O)[O-])cc1NC(=O)CSc1ccccc1
i,-0.33,O=C(CSc1nc2[nH]ncc2c(=O)n1-c1ccc(Cl)c(Cl)c1)NCc1ccccc1Cl
i,-0.36,CSc1nc(C)c(CCOC(=O)c2ccccc2)c(=O)[nH]1
i,-0.01,Cc1cccn2c(=O)nc(SCC(=O)Nc3ccc4c(c3)OCCO4)nc12
i,-0.45,CCOC(=O)c1ccc(N2C(=O)CC(Sc3nnc(C)s3)C2=O)cc1 (configuration not stated)
i,-2.78,CC(=O)OCCCNc1cc(SCc2ccco2)c2nonc2c1[N+](=O)[O-]
i,2.44,Cn1cnnc1SCCOc1ccc(Cl)cc1

3 compounds already listed, ordered by SMILES length, low to high:
KCNQ2 block,KCNQ2 block baseline,SMILES
i,0.72,Cc1c(C)[n+](=O)c2c(n1[O-])CCC2
i,-2.78,CC(=O)OCCCNc1cc(SCc2ccco2)c2nonc2c1[N+](=O)[O-]
i,1.41,O=C(CN(CC1CCCO1)C(=O)CNS(=O)(=O)c1ccc(Cl)cc1)NC1CCCC1 (configuration not stated)

More entries
KCNQ2 block,KCNQ2 block baseline,SMILES
i,-0.32,O=C(CSc1nc2nn(-c3ccccc3)c(=O)c-2c2n1CCCCC2)NCCCc1ccccc1
i,1.04,Cc1cccc(NC(=S)N2CCCC(c3nc4ccccc4[nH]3)C2)c1 (configuration not stated)
i,1.28,Cc1ccccc1C(=O)NC1CCN(CC(=O)Nc2ccccc2)CC1
i,-0.89,CC(=O)c1ccc(N2CCN(C(=O)c3ccc4c(=O)n(-c5ccccc5)c(=O)[nH]c4c3)CC2)cc1
i,-0.07,O=C(Nc1ccccc1N1CCN(C(=O)c2ccc(Cl)cc2)CC1)c1cccnc1
i,1.99,C/C(=N\NC(=O)c1cccc(S(=O)(=O)N2CCCC2)c1)c1ccc(C)cc1
i,0.27,Fc1cccc(Cl)c1CSc1nnc(COc2cccc3cccnc23)o1
i,-0.61,O=C(Nc1nc2ccc3ccccc3c2s1)c1ccc(N2CCCCC2)c([N+](=O)[O-])c1
i,-0.59,Cc1ccc(C(=O)O)cc1NC(=O)c1ccc(Cn2nc(C)c(Cl)c2C)o1
i,-0.4,CCOC(=O)N1CCC(NC(=O)c2cnc3n(c2=O)CCS3)CC1
i,1.68,CC(=O)OCC(=O)NCc1ccc2c(c1)OCO2
i,1.29,COc1ccc(CCNC(=O)c2cccc(S(=O)(=O)N3CCCCC3)c2)cc1
i,1.31,COc1ccccc1NC(=O)CSc1nnc(-c2ccncc2)o1
-6.8*,0.01*,CC(C)CCNc1nc(-c2ccco2)c2c(c1C#N)CCCC2
i,-0.02,COc1ccc(-c2noc(C3CCCN(C(=O)Nc4ccccc4F)C3)n2)cc1 (configuration not stated)
i,1.33,O=C(c1ccco1)N1CCN(CC(O)COc2ccc(Br)cc2)CC1 (configuration not stated)
i,0.36,Cc1ccc(C23CC4CC(CC(CN)(C4)C2)C3)cc1
i,-0.17,CN(C(=O)COC(=O)COc1ccc(Cl)cc1)C1CCCCC1
i,-0.17,Cc1cc(C)c(-c2csc(NC(=O)c3n[nH]c(=O)c4ccccc34)n2)c(C)c1
i,-0.14,Cc1ccc(S(=O)(=O)N/N=C\c2ccccc2OCc2ccccc2)cc1
-6.31*,0.5*,O=C(/C(=C/c1ccc(Cl)cc1)c1nc2ccccc2[nH]1)c1cccs1
i,-1.05,Cc1cccc(N2CCN(C(=O)CCNC(=O)Cn3ccc4ccccc4c3=O)CC2)c1C
i,-0.97,COc1ccc(/C=N/n2c(C3CCCCC3)n[nH]c2=S)c(OC)c1
i,-0.91,O=C(CNS(=O)(=O)c1ccc(Br)s1)NCc1ccccc1
-5.79*,-0.54*,COc1ccc(NC(=O)N(Cc2cccnc2)Cc2ccccc2Cl)c(OC)c1
-6.47*,2.75*,COc1ccc(C)cc1Nc1n[n+](-c2ccccc2)c(-c2c(Cl)cccc2Cl)s1
i,-0.59,COc1ccc(-c2ccc3c(N)c(C(=O)c4cccc(OC)c4)sc3n2)cc1
i,1.21,CCOC(=O)c1c(NC(=O)c2ccccc2)sc2c1CCc1ccccc1-2

Four compounds picked at random from those above:
KCNQ2 block,KCNQ2 block baseline,SMILES
i,-0.37,NC(=O)c1cc([N+](=O)[O-])cc2c1C=Cc1ccccc1O2
i,-1.35,COc1ccc(C(=O)NCCc2ccccc2F)cc1OC1CCN(C(C)=O)CC1
i,-0.65,Cn1c(C(=O)NN)cc2cc(Oc3ccccc3)ccc21
-6.47*,2.75*,COc1ccc(C)cc1Nc1n[n+](-c2ccccc2)c(-c2c(Cl)cccc2Cl)s1
